From PubChem BioAssay
UUG fidelity – modulators of yeast start codon fidelity, primary screen, whole organism, S. cerevisiae, single point, plate reader; AID 602363, 2012; activity score, % at 18.7 µM; hit rate 0.13% among 350,000; S. cerevisiae UUG-firefly luciferase reporter, luminescence/redox ratio;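 active means replicate mean at a twofold rise or more, about +100% in these data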;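 further: firefly luciferase made from a UUG start codon reports start codon fidelity; reporter light over untreated wells divided by growth signal over untreated wells; some hits fall short of that in this replicate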
Env fusion inh – inhibitors of HIV-1 Env-driven cell-cell fusion, primary screen, HeLa-JRFL effector, CEM21 target cells, luciferase | inhibition, % at 12.3 µM | hit rate 1.1% among 360,000 | AID 651610, 2012;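 active means mean replicate inhibition score of at least 50 and every replicate individually at or above 50; inconclusive means only one of the two criteria met; inactive means mean below 50 and not all replicates reaching 50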;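 further: 0% = plate neutral controls and 100% = maraviroc near 300 nM; one replicate is shown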
* hit, by the source's call; [ ] = another dose, or the depositor's remark. Only part of the results is shown (hit frequency here may not be typical).

Screening Cc1ccc(S(=O)(=O)N(C)C[C@@H]2OCCCC[C@@H](C)Oc3ccc(NC(=O)Nc4c(C)noc4C)cc3C(=O)N([C@@H](C)CO)C[C@@H]2C)cc1 returned UUG fidelity -3 and Env fusion inh -49[16.7 µM].
For Cc1ccc(S(=O)(=O)N[C@@H]2C=C[C@H](CC(=O)NCc3ccncn3)O[C@@H]2CO)cc1 the results were UUG fidelity -14 and Env fusion inh -4[16.7 µM].
Screening COc1cccc(C(=O)Nc2ccc3c(c2)OC[C@@H](C)N(C(C)=O)C[C@H](C)[C@H](OC)CN(C)C3=O)c1 returned UUG fidelity 8 and Env fusion inh -6[16.7 µM].
`O=S(=O)(N[C@H]1CC[C@@H](CCn2cc(-c3cccnc3)nn2)O[C@@H]1CO)c1ccccc1` gave UUG fidelity -7 and Env fusion inh 6[16.7 µM].
`CCC(=O)Nc1ccc2c(c1)C(=O)N(C)[C@H]1CC[C@H](CC(=O)NCc3ccc(OC)cc3)O[C@H]1CO2` gave UUG fidelity -2 and Env fusion inh -13[16.7 µM].
`COc1ccccc1-c1cn(CC[C@@H]2CC[C@@H](NC(=O)Cc3ccccn3)[C@H](CO)O2)nn1` gave UUG fidelity -1 and Env fusion inh -6[16.7 µM].
`O=C(C[C@@H]1C[C@@H]2c3cc(NC(=O)Nc4ccccc4F)ccc3O[C@@H]2[C@@H](CO)O1)NC1CCCC1` gave UUG fidelity 4 and Env fusion inh 2[16.7 µM].
For C[C@@H]1CCCCO[C@@H](CN(C)C(=O)c2ccccc2)[C@H](C)CN([C@H](C)CO)C(=O)c2cc(NC(=O)Nc3ccc4c(c3)OCO4)ccc2O1 the results were UUG fidelity 14 and Env fusion inh -19[16.7 µM].
`Cc1noc(C)c1S(=O)(=O)Nc1ccc2c(c1)C(=O)N([C@H](C)CO)C[C@@H](C)[C@H](CN(C)C(=O)Nc1cccc3ccccc13)OCCCC[C@@H](C)O2` gave UUG fidelity 8 and Env fusion inh 28[16.7 µM].
C[C@@H]1CCCCO[C@@H](CN(C)Cc2ccc3c(c2)OCO3)[C@@H](C)CN([C@H](C)CO)C(=O)c2cc(NS(=O)(=O)c3ccc(F)cc3)ccc2O1 was read as UUG fidelity 28 and Env fusion inh -14[16.7 µM].
Screening C[C@@H](NC(=O)C[C@H]1CC[C@H](NC(=O)C2CC2)[C@H](CO)O1)c1ccccc1 returned UUG fidelity 1 and Env fusion inh 8[16.7 µM].
For C[C@@H]1CN([C@@H](C)CO)C(=O)c2cccc(NC(=O)C3CCCCC3)c2O[C@@H]1CN(C)CC1CCCCC1 the results were UUG fidelity -6 and Env fusion inh -12[16.7 µM].
`C[C@@H]1CN([C@H](C)CO)C(=O)c2cccc(NC(=O)Nc3ccc(F)cc3)c2O[C@@H]1CN(C)S(=O)(=O)c1ccc(F)cc1` gave UUG fidelity 11 and Env fusion inh 14[16.7 µM].
Screening CNC[C@@H]1Oc2ccc(NC(=O)NC(C)C)cc2C(=O)N([C@@H](C)CO)C[C@@H]1C returned UUG fidelity -12 and Env fusion inh -11[16.7 µM].
C[C@@H]1CCCCO[C@@H](CN(C)C(=O)NC2CCCCC2)[C@@H](C)CN([C@@H](C)CO)C(=O)c2cc(NC(=O)C3CCCCC3)ccc2O1 was read as UUG fidelity 15 and Env fusion inh -14[16.7 µM].
COc1ccc(NC(=O)Nc2ccc3c(c2)C(=O)N([C@@H](C)CO)C[C@H](C)[C@@H](CN(C)C(=O)c2ccccc2)OCCCC[C@H](C)O3)cc1 was read as UUG fidelity 16 and Env fusion inh -21[16.7 µM].
Screening CCCC(=O)Nc1ccc2c(c1)C(=O)N(C)C[C@H](OC)[C@H](C)CN[C@@H](C)CO2 returned UUG fidelity -14 and Env fusion inh 5[16.7 µM].
Screening COCC#Cc1cnc2c(c1)C(=O)N([C@@H](C)CO)C[C@@H](C)[C@H](CN(C)C(=O)C1CCC1)O2 returned UUG fidelity 4 and Env fusion inh 9[16.7 µM].
Screening C[C@@H]1CN([C@@H](C)CO)C(=O)c2cc(/C=C/c3ccccc3)cnc2O[C@H]1CN(C)C(=O)Cc1ccccn1 returned UUG fidelity -5 and Env fusion inh -6[16.7 µM].
For C[C@@H]1CCCCO[C@H](CN(C)C(=O)Nc2ccc(C(F)(F)F)cc2)[C@@H](C)CN([C@@H](C)CO)C(=O)c2cc(NC(=O)Nc3ccc(C(F)(F)F)cc3)ccc2O1 the results were UUG fidelity -19 and Env fusion inh inconclusive.
Screening C[C@H]1CN([C@@H](C)CO)S(=O)(=O)c2ccc(C#Cc3ccccn3)cc2O[C@H]1CN(C)C(=O)C1CC1 returned UUG fidelity 5 and Env fusion inh -1[16.7 µM].
COCC(=O)Nc1ccc2c(c1)C(=O)N(C)C[C@@H](OC)[C@@H](C)CN(C(=O)c1ccccc1F)[C@@H](C)CO2 was read as UUG fidelity -10 and Env fusion inh 2[16.7 µM].
For CCC(=O)N(C)C[C@@H]1Oc2cc(C#CCOC)ccc2S(=O)(=O)N([C@@H](C)CO)C[C@H]1C the results were UUG fidelity -5 and Env fusion inh -17[16.7 µM].
For COc1ccc(S(=O)(=O)N(C)C[C@H]2OCCCC[C@H](C)Oc3ccc(NC(=O)Cc4ccccc4)cc3C(=O)N([C@@H](C)CO)C[C@@H]2C)cc1 the results were UUG fidelity 7 and Env fusion inh -71[16.7 µM].
CC(C)CC#Cc1cnc2c(c1)C(=O)N([C@@H](C)CO)C[C@H](C)[C@@H](CN(C)Cc1ccc(C(=O)O)cc1)O2 was read as UUG fidelity 8 and Env fusion inh -4[16.7 µM].
`C[C@H](CO)N1C[C@H](C)[C@H](CN(C)CC2CCOCC2)Oc2ncc(C#Cc3ccc(F)cc3)cc2C1=O` gave UUG fidelity 19 and Env fusion inh 23[16.7 µM].
Screening Cc1noc(C)c1NC(=O)N(C)C[C@@H]1Oc2ccc(NC(=O)Nc3cccc4ccccc34)cc2C(=O)N([C@@H](C)CO)C[C@@H]1C returned UUG fidelity 10 and Env fusion inh 20[16.7 µM].
C[C@@H]1CCCCO[C@@H](CN(C)S(=O)(=O)c2ccccc2)[C@H](C)CN([C@@H](C)CO)C(=O)c2cc(NC(=O)Nc3ccccc3)ccc2O1 was read as UUG fidelity -16 and Env fusion inh 17[16.7 µM].
`O=C(C[C@@H]1C[C@H]2c3cc(NC(=O)CC4CC4)ccc3O[C@H]2[C@@H](CO)O1)NCc1ccncc1` gave UUG fidelity -3 and Env fusion inh 6[16.7 µM].
For COc1ccc(S(=O)(=O)Nc2ccc3c(c2)C(=O)N([C@@H](C)CO)C[C@H](C)[C@@H](CN(C)C(=O)c2ccccc2)OCCCC[C@@H](C)O3)cc1 the results were UUG fidelity 12 and Env fusion inh -21[16.7 µM].
`C[C@H](CO)N1C[C@H](C)[C@@H](CN(C)C(=O)c2ccc(N3CCN(C)CC3)cc2)OCc2cn(nn2)CCCC1=O` gave UUG fidelity 11 and Env fusion inh -19.
For C[C@H](CO)N1C[C@H](C)[C@H](CN(C)C(=O)Cc2cccnc2)Oc2ncc(C#Cc3ccccc3F)cc2C1=O the results were UUG fidelity -9 and Env fusion inh 5[16.7 µM].
C[C@@H]1CCCCO[C@H](CN(C)CC2CCCCC2)[C@@H](C)CN([C@H](C)CO)C(=O)c2cc(NS(=O)(=O)c3ccc(Cl)cc3)ccc2O1 was read as UUG fidelity 6 and Env fusion inh -53[16.7 µM].
`CCCC(=O)Nc1ccc2c(c1)C(=O)N(C)[C@@H]1CC[C@@H](CC(=O)NCCOC)O[C@H]1CO2` gave UUG fidelity 6 and Env fusion inh -34[16.7 µM].
Screening Cc1ccc(S(=O)(=O)N(C)C[C@@H]2Oc3c(NC(=O)c4cc(C)nn4C)cccc3C(=O)N([C@@H](C)CO)C[C@@H]2C)cc1 returned UUG fidelity -13 and Env fusion inh -9[16.7 µM].
O=C(CCN1CCCCC1)N[C@H]1C=C[C@@H](CC(=O)N2CCC(Cc3ccccc3)CC2)O[C@@H]1CO was read as UUG fidelity 1 and Env fusion inh 2[16.7 µM].

Arranged by count of non-hydrogen atoms (rising): some entries from above
Screening CCCC(=O)Nc1ccc2c(c1)C(=O)N(C)C[C@H](OC)[C@H](C)CN[C@@H](C)CO2 returned UUG fidelity -14 and Env fusion inh 5[16.7 µM].
`COc1ccccc1-c1cn(CC[C@@H]2CC[C@@H](NC(=O)Cc3ccccn3)[C@H](CO)O2)nn1` gave UUG fidelity -1 and Env fusion inh -6[16.7 µM].
For C[C@@H]1CCCCO[C@@H](CN(C)C(=O)c2ccccc2)[C@H](C)CN([C@H](C)CO)C(=O)c2cc(NC(=O)Nc3ccc4c(c3)OCO4)ccc2O1 the results were UUG fidelity 14 and Env fusion inh -19[16.7 µM].

Next records:
`Cc1noc(C)c1S(=O)(=O)N(C)C[C@H]1Oc2c(NC(=O)C3CC3)cccc2C(=O)N([C@H](C)CO)C[C@H]1C` gave UUG fidelity -10 and Env fusion inh -15[16.7 µM].
Screening Cc1noc(C)c1NC(=O)N(C)C[C@@H]1Oc2ccc(N(C)C)cc2C(=O)N([C@@H](C)CO)C[C@H]1C returned UUG fidelity -4 and Env fusion inh -3[16.7 µM].
`CCC(=O)N(C)C[C@@H]1Oc2cc(C#CCC(C)C)ccc2S(=O)(=O)N([C@@H](C)CO)C[C@H]1C` gave UUG fidelity 13 and Env fusion inh 5[16.7 µM].
O=S(=O)(N[C@@H]1CC[C@H](CCn2cc(-c3cccnc3)nn2)O[C@@H]1CO)c1ccc(Cl)cc1 was read as UUG fidelity 102* and Env fusion inh -8[16.7 µM].
C[C@@H]1CN([C@H](C)CO)S(=O)(=O)c2ccc(-c3ccc(C(=O)N(C)C)cc3)cc2O[C@H]1CN(C)C(=O)C1CCOCC1 was read as UUG fidelity 5 and Env fusion inh 10[16.7 µM].
`C[C@@H]1CN([C@H](C)CO)C(=O)c2cc(NC(=O)Nc3ccccc3)ccc2O[C@@H](C)CCCCO[C@@H]1CN(C)C` gave UUG fidelity 10 and Env fusion inh 5[16.7 µM].
For C[C@@H]1CN([C@@H](C)CO)C(=O)c2cc(NS(=O)(=O)c3ccccc3)ccc2O[C@H]1CN(C)CC1CCCCC1 the results were UUG fidelity -13 and Env fusion inh -3[16.7 µM].
COc1cccc(NC(=O)N(C)C[C@H]2Oc3ncc(/C=C/c4ccccc4)cc3C(=O)N([C@@H](C)CO)C[C@@H]2C)c1 was read as UUG fidelity -2 and Env fusion inh -11[16.7 µM].
`C[C@H]1CN([C@@H](C)CO)C(=O)c2cc(N(C)C)ccc2O[C@H]1CN(C)Cc1ccc(Oc2ccccc2)cc1` gave UUG fidelity 14 and Env fusion inh -9[16.7 µM].
Screening O=S(=O)(N[C@H]1CC[C@H](CCn2cc(-c3cccnc3)nn2)O[C@@H]1CO)c1ccccc1 returned UUG fidelity -3 and Env fusion inh 9[16.7 µM].
`C[C@H](CO)N1C[C@H](C)[C@@H](CN(C)C(=O)Cc2cccnc2)Oc2ncc(-c3cncnc3)cc2C1=O` gave UUG fidelity -5 and Env fusion inh -5[16.7 µM].
`O=C(Cc1ccccn1)N[C@@H]1CC[C@@H](CCNS(=O)(=O)c2cccc(F)c2)O[C@@H]1CO` gave UUG fidelity 0 and Env fusion inh 25[16.7 µM].

Random excerpt: 2 records from the list
`O=C(Cc1ccccn1)N[C@@H]1CC[C@@H](CCNS(=O)(=O)c2cccc(F)c2)O[C@@H]1CO` gave UUG fidelity 0 and Env fusion inh 25[16.7 µM].
`Cc1noc(C)c1S(=O)(=O)N(C)C[C@H]1Oc2c(NC(=O)C3CC3)cccc2C(=O)N([C@H](C)CO)C[C@H]1C` gave UUG fidelity -10 and Env fusion inh -15[16.7 µM].

Further records.
Screening C[C@@H]1CN([C@@H](C)CO)S(=O)(=O)c2ccc(C#CC(C)(C)O)cc2O[C@H]1CN(C)C returned UUG fidelity 8 and Env fusion inh -58[16.7 µM].
For CC(C)CC#Cc1ccc2c(c1)O[C@H](CN(C)Cc1ccncc1)[C@H](C)CN([C@H](C)CO)S2(=O)=O the results were UUG fidelity -12 and Env fusion inh 13[16.7 µM].
Screening CC(C)NC(=O)N(C)C[C@@H]1Oc2ccc(NC(=O)Nc3ccc(C(F)(F)F)cc3)cc2CC(=O)N([C@@H](C)CO)C[C@H]1C returned UUG fidelity 2 and Env fusion inh 6[16.7 µM].
Screening CC(C)(C)n1nnnc1C(c1cccs1)N1CCN(C/C=C/c2ccccc2)CC1 (stereo unspecified) returned UUG fidelity -1 and Env fusion inh -58.
Cc1noc(C)c1S(=O)(=O)N(C)C[C@@H]1Oc2ccc(NS(C)(=O)=O)cc2CC(=O)N([C@@H](C)CO)C[C@H]1C was read as UUG fidelity -1 and Env fusion inh -54[16.7 µM].
C[C@@H]1CN([C@H](C)CO)C(=O)c2cc(-c3ccccc3)cnc2O[C@H]1CN(C)C(=O)C1CCOCC1 was read as UUG fidelity -8 and Env fusion inh -6[16.7 µM].
COc1ccc(-c2ccc3c(c2)O[C@H](CN(C)C(C)=O)[C@@H](C)CN([C@H](C)CO)S3(=O)=O)cc1 was read as UUG fidelity 53 and Env fusion inh -38[16.7 µM].
`Cc1noc(C)c1S(=O)(=O)Nc1cccc2c1O[C@@H](CN(C)Cc1ccc(C(F)(F)F)cc1)[C@@H](C)CN([C@@H](C)CO)C2=O` gave UUG fidelity -4 and Env fusion inh 4[16.7 µM].
C[C@@H]1CCCCO[C@H](CN(C)C(=O)Nc2cccc3ccccc23)[C@H](C)CN([C@@H](C)CO)C(=O)c2cc(NC(=O)Nc3ccc4c(c3)OCO4)ccc2O1 was read as UUG fidelity -9 and Env fusion inh -62[16.7 µM].
Screening COCC(=O)Nc1ccc2c(c1)[C@H]1C[C@@H](CC(=O)NCc3cc(F)ccc3F)O[C@H](CO)[C@H]1O2 returned UUG fidelity 3 and Env fusion inh -29[16.7 µM].
CO[C@@H]1CN(C)C(=O)c2ccc(NS(=O)(=O)c3ccccc3Cl)cc2OC[C@H](C)NC[C@@H]1C was read as UUG fidelity -7 and Env fusion inh 15[16.7 µM].
`C[C@@H]1CN([C@@H](C)CO)S(=O)(=O)c2ccc(-c3ccccc3)cc2O[C@@H]1CN(C)Cc1ccccn1` gave UUG fidelity -19 and Env fusion inh 3[16.7 µM].
